High-throughput results from PubChem.
Sa ugtP lethal – kills S. aureus RN4220 lacking UgtP | S. aureus RN4220 ugtP deletion, OD600 growth, 16 h; some inactives read as strong as hits | growth inhibition, % (concentration not given with the values) | actives 0.54% (n = 330,000) | AID 1259309;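 active = z-score under -3 and OD600 up to 0.15 on both plates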;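 note: plate controls were untreated wells for no effect and antibiotic for full effect; wells of about 80 µL received 100 nL stock; the first replicate is given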
PrP 5UTR inh – suppresses PrP 5' UTR mRNA reporter expression; actives 0.35% (n = 340,000); AID 488862; cell-based PrP 5' UTR mRNA reporter, plate reader; inhibition, % (concentration not given with the values);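 active = every replicate at 50% or more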;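 note: 0 = median of the neutral control wells; tested in H4 reporter cells; numbers are from one replicate; inactives centre near -14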
Mtb hypoxia inh – reduces hypoxia-regulated biosensor signal in M. tuberculosis | M. tuberculosis hypoxia-regulated fluorescent reporter, fluorescence | fluorescence inhibition, % (test concentration not listed) | actives 0.1% (n = 300,000) | AID 1159583;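 active = 35 to 45% if threefold the growth effect, above 45% if 1.5-fold the growth effect; inactive = the rest, general growth blockers included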;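 note: wells of about 50 µL received 100 nL stock; 0% = vehicle wells and 100% = reference inhibitor wells; whole bacteria with a GFP reporter of the hypoxia response; strong numbers were not always called active; many hits fall short of the cut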
Bead autofluor – compound fluorescence in toxin protease inhibitor counterscreen | compound autofluorescence counterscreen, microsphere flow cytometry; hits give high values | fluorescence intensity (no concentration beside the values) | actives 3.1% (n = 360,000) | AID 624483;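 active = at least 3 SD above the mean of all compounds, about 16000 in these data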;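 note: 100 nL of 1 mM stock went into each well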
BJeLR viability – kills HRASV12-expressing BJeLR cells | BJeLR (HRASV12) viability, CellTiter-Glo ATP luminescence, 48 h; reference of the scale not given here | inhibition, % (test concentration not listed) | actives 0.17% (n = 300,000) | AID 1554;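 active = replicate mean above 50%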;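 note: 50 nL library stock added to about 25 µL; numbers are from one replicate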
Sa RN4220 lethal – S. aureus RN4220 growth inhibition | inhibition, % (no concentration beside the values) | OD600, 16 h | actives 0.33% (n = 330,000);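 active = z-score of -3 or lower and OD600 up to 0.18 on both plates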;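 note: plate controls were untreated cells for no effect and reference antibiotic for full effect; stock transfer was 100 nL into about 80 µL; one replicate is shown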
Mtb hypoxia inh growth – recorded beside Mtb hypoxia inh, whose call it bears; growth inhibition, %; measured here: M. tuberculosis growth (absorbance);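 0% = vehicle and 100% = reference antibiotic; read after six days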
Numbers without * were called inactive.

Screening COc1ccc(CCNC(=O)CCNC(=O)c2ccco2)cc1OC returned Sa ugtP lethal 14, PrP 5UTR inh -18, Mtb hypoxia inh 9, Bead autofluor 4530, BJeLR viability -7, Sa RN4220 lethal 5.5 and Mtb hypoxia inh growth -5.
O=C(NCc1ccco1)/C(=C/c1cccnc1)NC(=O)c1ccco1 was read as Sa ugtP lethal 1, PrP 5UTR inh -7, Mtb hypoxia inh 4, Bead autofluor 11507, BJeLR viability -4, Sa RN4220 lethal 1.9 and Mtb hypoxia inh growth 15.
`O=C(NCC1CCCO1)C1CCN(C2CCN(C(=O)Cc3ccsc3)CC2)CC1` (configuration not stated) gave Sa ugtP lethal 4, PrP 5UTR inh -26, Mtb hypoxia inh -4, Bead autofluor 4558, BJeLR viability 3, Sa RN4220 lethal 11 and Mtb hypoxia inh growth 4.
For CCOc1ccc(/C=N/N2C(=O)C(CC(=O)Nc3ccc(F)cc3F)SC2=NC)cc1OC (configuration not stated) the results were PrP 5UTR inh -6, Bead autofluor 2175 and BJeLR viability -7.
For COc1cc2cc(C(=O)N3CCc4ccccc4C3)[nH]c2cc1OC the results were Sa ugtP lethal -7, PrP 5UTR inh -6, Mtb hypoxia inh 6, Bead autofluor 6054, BJeLR viability -10, Sa RN4220 lethal 2.7 and Mtb hypoxia inh growth 5.
Screening CC(C)C(O)(CC#CCN1CCCC1)c1ccccc1 (configuration not stated) returned Sa ugtP lethal 2, PrP 5UTR inh -18, Mtb hypoxia inh 4, Bead autofluor 4194, BJeLR viability -4, Sa RN4220 lethal 4.5 and Mtb hypoxia inh growth 18.
`CN(C)C(CNC(=O)CSC(=S)N1CCCC1)c1ccccc1` (configuration not stated) gave Sa ugtP lethal 2, PrP 5UTR inh -16, Mtb hypoxia inh 7, Bead autofluor 4225, Sa RN4220 lethal 3.3 and Mtb hypoxia inh growth 8.
CC(OC(=O)CNS(=O)(=O)c1ccc2ccccc2c1)C(=O)N(C)c1ccccc1 (configuration not stated) was read as Sa ugtP lethal -1, PrP 5UTR inh -5, Mtb hypoxia inh 0, Bead autofluor 6207, BJeLR viability 2, Sa RN4220 lethal 0.4 and Mtb hypoxia inh growth -8.
CC[C@]12c3[nH]c4ccccc4c3CCN1C(=O)C(CC(=O)NCc1ccco1)C[C@@H]2C(=O)N1CCN(C(=O)C2CC2)CC1 (some centres not stated) was read as Sa ugtP lethal 2, PrP 5UTR inh -17, Mtb hypoxia inh 0, Bead autofluor 2997, Sa RN4220 lethal -2.0 and Mtb hypoxia inh growth -3.
CC1=CC(C)(C)n2c(O)c(N=N)c3c(C)c(C)cc1c32 was read as Sa ugtP lethal 6, PrP 5UTR inh -16, Mtb hypoxia inh 15, Bead autofluor 4758, BJeLR viability -2, Sa RN4220 lethal -6.0 and Mtb hypoxia inh growth 3.
C=CCc1cccc(CNc2c(C)n(C)n(-c3ccccc3)c2=O)c1O was read as Sa ugtP lethal 3, PrP 5UTR inh -20, Mtb hypoxia inh 2, Bead autofluor 16249*, BJeLR viability -16, Sa RN4220 lethal 3.8 and Mtb hypoxia inh growth 0.
O=C(NN=Cc1ccccc1C(=O)O)c1ccc(COc2cccc3cccnc23)cc1 was read as Sa ugtP lethal 4, Mtb hypoxia inh 3, Sa RN4220 lethal 15 and Mtb hypoxia inh growth 0.
Cc1ccc(C(=O)NNC(=O)c2ccc3ccccc3c2)cc1 was read as Sa ugtP lethal -7, PrP 5UTR inh -34, Mtb hypoxia inh 3, Bead autofluor 3903, Sa RN4220 lethal 11 and Mtb hypoxia inh growth 2.
For Cc1ccc(N2C(=O)CC(=O)NC2=O)cc1Cl the results were Sa ugtP lethal -2, PrP 5UTR inh -26, Mtb hypoxia inh -4, Bead autofluor 3957, BJeLR viability -7, Sa RN4220 lethal 1.7 and Mtb hypoxia inh growth 6.
For O=[N+]([O-])c1ccccc1C=NNC1=NCCCCC1 the results were Sa ugtP lethal 11, Mtb hypoxia inh -3, Sa RN4220 lethal -0.6 and Mtb hypoxia inh growth 3.
`Cc1ccc(CS(=O)Cc2ccc(C(=O)N3CCN(c4ccccn4)CC3)o2)cc1` (configuration not stated) gave Sa ugtP lethal 10, PrP 5UTR inh -11, Mtb hypoxia inh 10, Bead autofluor 5187, BJeLR viability 3, Sa RN4220 lethal 3.3 and Mtb hypoxia inh growth 8.
Screening Oc1cccc2ccc(N3CCOCC3)nc12 returned Sa ugtP lethal 7, PrP 5UTR inh -24, Mtb hypoxia inh 6, Bead autofluor 4005, BJeLR viability -13, Sa RN4220 lethal 6.7 and Mtb hypoxia inh growth -3.
For CCCCc1ccc(NC(=S)NCc2cccs2)cc1 the results were Sa ugtP lethal -22, PrP 5UTR inh -10, Mtb hypoxia inh 13, Bead autofluor 6075, BJeLR viability -4, Sa RN4220 lethal 1.0 and Mtb hypoxia inh growth 27.
For CC(C)N(Cc1nccn1C)C(=O)c1cc(COc2ccc(F)cc2Cl)on1 the results were Sa ugtP lethal 5, PrP 5UTR inh -12, Mtb hypoxia inh -1, Bead autofluor 5741, BJeLR viability -1, Sa RN4220 lethal 0.6 and Mtb hypoxia inh growth 5.
Screening CCC(C)Nc1nc(-c2c[nH]c3ccccc23)cs1 (configuration not stated) returned PrP 5UTR inh -10, Bead autofluor 3893 and BJeLR viability 0.
For CC(=O)Nc1ccc(NC(=O)C(C)OC(=O)CNS(=O)(=O)c2ccc(Br)cc2Cl)cc1 (configuration not stated) the results were Sa ugtP lethal -6, PrP 5UTR inh -13, Mtb hypoxia inh -9, Bead autofluor 5884, BJeLR viability 2, Sa RN4220 lethal -1.3 and Mtb hypoxia inh growth -2.
CCOc1ccc(C(=O)/C=C/c2cc(OC)c(OC)c(OC)c2)cc1 was read as Sa ugtP lethal 9, PrP 5UTR inh -5, Mtb hypoxia inh 6, Bead autofluor 4382, BJeLR viability -8, Sa RN4220 lethal 12 and Mtb hypoxia inh growth 11.
`Cc1ccccc1Nc1nnc(SCc2cc(=O)n3ccsc3n2)s1` gave Sa ugtP lethal -7, Mtb hypoxia inh 1, Bead autofluor 10045, BJeLR viability 16, Sa RN4220 lethal 2.9 and Mtb hypoxia inh growth 5.
For CCNS(=O)(=O)c1ccc(C(=O)OCc2cc(=O)oc3cc(OC)ccc23)cc1 the results were Sa ugtP lethal -5, PrP 5UTR inh -20, Mtb hypoxia inh 9, Bead autofluor 3520, BJeLR viability -7, Sa RN4220 lethal -4.1 and Mtb hypoxia inh growth 6.
For COc1ccc(C(=O)CSc2n[nH]c(N)n2)cc1 the results were Sa ugtP lethal 7, PrP 5UTR inh -22, Bead autofluor 2590, BJeLR viability 20 and Sa RN4220 lethal -0.5.
Cc1ccc(NC(=S)NN=Cc2c(C)[nH]c3ccccc23)cc1 was read as Sa ugtP lethal 88*, Mtb hypoxia inh 1, Sa RN4220 lethal 92* and Mtb hypoxia inh growth 6.
`NC(=S)NN=Cc1ccc(-c2cc(Cl)c(Cl)cc2Cl)o1` gave Sa ugtP lethal -13, Mtb hypoxia inh 21, Sa RN4220 lethal 9.2 and Mtb hypoxia inh growth 36.
For COc1ccc(S(=O)(=O)N2CCC(C(=O)NCc3ccccc3)CC2)cc1OC the results were Sa ugtP lethal 5, PrP 5UTR inh -26, Mtb hypoxia inh 7, Bead autofluor 4585, BJeLR viability 1, Sa RN4220 lethal 1.2 and Mtb hypoxia inh growth 2.
`Cc1ccc(N(CC(=O)Nc2ccc(C)cc2C)S(=O)(=O)N2CCCC2)cc1` gave Sa ugtP lethal -2, PrP 5UTR inh 3, Mtb hypoxia inh 3, Bead autofluor 8008, BJeLR viability 14, Sa RN4220 lethal 2.1 and Mtb hypoxia inh growth 0.
`COc1cccc(C(=O)COC(=O)c2cccs2)c1` gave Sa ugtP lethal 3, PrP 5UTR inh -72, Mtb hypoxia inh 1, Bead autofluor 5610, BJeLR viability -9, Sa RN4220 lethal 1.7 and Mtb hypoxia inh growth 0.
Screening Cc1ccc(CNC(=O)CCNC(=O)c2ccco2)cc1 returned Sa ugtP lethal 0, PrP 5UTR inh -35, Bead autofluor 2901, BJeLR viability -2 and Sa RN4220 lethal 8.1.
Cc1csc2nc(CSc3nncn3-c3ccccc3)c(Br)n12 was read as Sa ugtP lethal -5, PrP 5UTR inh -15, Mtb hypoxia inh 14, Bead autofluor 3337, BJeLR viability -6, Sa RN4220 lethal -16 and Mtb hypoxia inh growth -19.
For O=C(O)CCCCNS(=O)(=O)c1ccc(Cl)c(C(F)(F)F)c1 the results were Sa ugtP lethal 2, PrP 5UTR inh -9, Mtb hypoxia inh 3, Bead autofluor 9545, BJeLR viability 5, Sa RN4220 lethal 1.8 and Mtb hypoxia inh growth 7.
For O=[N+]([O-])c1ccc(C=NNc2ncc(Br)cn2)cc1 the results were Sa ugtP lethal 6, Mtb hypoxia inh -1, Sa RN4220 lethal 3.9 and Mtb hypoxia inh growth -7.
For COC(=O)CCC(=O)NNC(=O)Cc1ccccc1 the results were Sa ugtP lethal 4, PrP 5UTR inh -27, Mtb hypoxia inh 9, Bead autofluor 3980, BJeLR viability 4, Sa RN4220 lethal 3.8 and Mtb hypoxia inh growth 4.
Screening COc1ccc(/C=C/CN2CCCC(CO)(Cc3cccc(Cl)c3)C2)cc1 (configuration not stated) returned Sa ugtP lethal -1, PrP 5UTR inh -25, Mtb hypoxia inh -4, Bead autofluor 5089, BJeLR viability -2, Sa RN4220 lethal -6.3 and Mtb hypoxia inh growth -6.
`Cc1ccc(NC(=O)Cn2nc(C(=O)Nc3ccc(C)cc3)ccc2=O)cc1` gave Sa ugtP lethal -1, PrP 5UTR inh -17, Mtb hypoxia inh -4, Bead autofluor 5766, BJeLR viability -1, Sa RN4220 lethal 0.0 and Mtb hypoxia inh growth 2.
O=C(Nc1ccc(S(=O)(=O)N2CCOCC2)cc1)c1c(F)cccc1F was read as Sa ugtP lethal 2, PrP 5UTR inh -9, Mtb hypoxia inh 6, Bead autofluor 3720, BJeLR viability -6, Sa RN4220 lethal -1.6 and Mtb hypoxia inh growth 1.
CN(CC(=O)Nc1ccccc1Cl)C(=O)COC(=O)CCN1C(=O)C2CC=CCC2C1=O (configuration not stated) was read as Sa ugtP lethal 5, PrP 5UTR inh -18, Mtb hypoxia inh 7, Bead autofluor 5403, BJeLR viability -5, Sa RN4220 lethal 2.9 and Mtb hypoxia inh growth 10.
Screening COC(=O)C1=CN(C2CCCCC2)C=C(C(=O)OC)C1c1ccc2c(c1)OCO2 returned Sa ugtP lethal 7, PrP 5UTR inh -8, Mtb hypoxia inh 11, Bead autofluor 2714, BJeLR viability -6, Sa RN4220 lethal -0.7 and Mtb hypoxia inh growth -2.
O=C(CSc1ncnc2scc(-c3ccccc3)c12)NC1CCS(=O)(=O)C1 (configuration not stated) was read as Sa ugtP lethal 18, PrP 5UTR inh -3, Mtb hypoxia inh -1, Bead autofluor 6054, BJeLR viability 9, Sa RN4220 lethal 6.4 and Mtb hypoxia inh growth 6.
COc1ccc(S(=O)(=O)Nc2cc3c4c(oc3c3ccccc23)CCCC4=O)cc1 was read as Sa ugtP lethal 2, PrP 5UTR inh -20, Bead autofluor 3803, BJeLR viability 6 and Sa RN4220 lethal 7.2.
`COCCN(CCOC)C(=O)c1ccc(NS(=O)(=O)c2ccc3[nH]c(=O)[nH]c3c2)cc1` gave Sa ugtP lethal 0, PrP 5UTR inh -5, Mtb hypoxia inh 1, Bead autofluor 4374, BJeLR viability -7, Sa RN4220 lethal -0.2 and Mtb hypoxia inh growth 5.
C[C@@]12C(=O)N(c3ccc(C(F)(F)F)cc3)C(=O)N1[C@@H]1c3ccccc3OC[C@@H]1[C@H]2c1ccccc1 was read as PrP 5UTR inh -20, Bead autofluor 4229 and BJeLR viability 5.
O=C(CCc1n[nH]c(=O)[nH]c1=O)Nc1cccc([N+](=O)[O-])c1 was read as Sa ugtP lethal -7, PrP 5UTR inh -31, Mtb hypoxia inh 4, Bead autofluor 2284, BJeLR viability 6, Sa RN4220 lethal 4.0 and Mtb hypoxia inh growth 2.
`CCOC(=O)Cc1csc(SCC(=O)Nc2sc3c(c2C(N)=O)CCC3)n1` gave Sa ugtP lethal -4, PrP 5UTR inh 8, Bead autofluor 4626, BJeLR viability -6 and Sa RN4220 lethal 0.0.

2 records drawn at random from the list so far, as already listed:
Cc1ccc(NC(=S)NN=Cc2c(C)[nH]c3ccccc23)cc1 was read as Sa ugtP lethal 88*, Mtb hypoxia inh 1, Sa RN4220 lethal 92* and Mtb hypoxia inh growth 6.
`Cc1ccc(N(CC(=O)Nc2ccc(C)cc2C)S(=O)(=O)N2CCCC2)cc1` gave Sa ugtP lethal -2, PrP 5UTR inh 3, Mtb hypoxia inh 3, Bead autofluor 8008, BJeLR viability 14, Sa RN4220 lethal 2.1 and Mtb hypoxia inh growth 0.

Outcome played no part in choosing rows. Share with any hit: about 4%.
